Source: PubChem BioAssay
Cruzain inh noDet: qHTS Assay for Promiscuous and Specific Inhibitors of Cruzain (without detergent) | purified cruzain, Z-FR-AMC fluorescence, no detergent | Potency, µM, without a hit: max response, negative = inhibition, actives largely listed as inhibitors | AID 1476, 2009 | 200,000 tested, 2.3% active | Cruzipain (Trypanosoma cruzi), P25779; active = well fitted curve in the direction sought with a large enough effect; inconclusive = small, poorly fitted or top-dose-only effect, or another doubt; inactive = no such curve, though single readings can be large; an effect the other way counts as inactive or inconclusive;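 note: plate controls were enzyme without inhibitor for no effect and buffer without enzyme for full effect; nearly all actives have a fitted effect of over 40% in size; top concentration of the series not given in the record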
Target sequence (P25779 123-467 limits assumed): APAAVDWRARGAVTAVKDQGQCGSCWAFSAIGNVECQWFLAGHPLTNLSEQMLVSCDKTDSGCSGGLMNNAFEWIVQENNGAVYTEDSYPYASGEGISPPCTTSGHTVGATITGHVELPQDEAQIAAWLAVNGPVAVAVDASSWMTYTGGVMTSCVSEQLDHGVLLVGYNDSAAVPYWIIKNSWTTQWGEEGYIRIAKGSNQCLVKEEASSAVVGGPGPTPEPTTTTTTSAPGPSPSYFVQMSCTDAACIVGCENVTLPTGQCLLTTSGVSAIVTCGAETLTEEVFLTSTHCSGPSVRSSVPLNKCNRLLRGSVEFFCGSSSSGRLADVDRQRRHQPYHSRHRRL
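Purified cruzain at 1.5 nM, pre-incubated 15 min with compound at room temperature in 100 mM sodium acetate pH 5.5, 5 mM DTT, 0.00005% Triton X-100. Reaction started with 2 uM Z-FR-AMC; AMC fluorescence increase over 60 s gives rate.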
Cruzain Triton: qHTS Assay for Promiscuous and Specific Inhibitors of Cruzain (with detergent); purified cruzain, Z-FR-AMC fluorescence, 0.01% Triton; Potency, µM, for the others: max response, negative = inhibition, actives largely listed as inhibitors; 200,000 tested, 0.43% active; AID 1478, 2009; active = well fitted curve in the direction sought with a large enough effect; inconclusive = small, poorly fitted or top-dose-only effect, or another doubt; inactive = no such curve, though single readings can be large; an effect the other way counts as inactive or inconclusive;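 note: plate controls were neutral wells for no effect and buffer without enzyme for full effect; nearly all actives have a fitted effect of over 40% in size; top concentration of the series not given in the record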
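Detergent-containing run (0.01% Triton X-100) in acetate buffer pH 5.5 with 5 mM DTT: enzyme at 1.5 nM final, 15 min compound preincubation at room temperature, then 2 uM Z-FR-AMC substrate. Activity taken as 60 s fluorescence increase at 360/450 nm.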
NS1 inh: qHTS Assay for Inhibitors of Influenza NS1 Protein Function; Potency, µM (series often up to 46.1 µM), for the others: at the highest dose activity, positive = more growth; 270,000 tested, 0.4% active; AID 2326, 2010; S. cerevisiae slowed by influenza A NS1, growth recovery by OD600; note: actives are rising curves; nearly all actives have a fitted effect of over 50% in size
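Read-out: OD600 growth recovery of NS1-expressing budding yeast. Cells grown overnight at 30C in -URA glucose medium, washed, resuspended and diluted 1:100 in 2% galactose assay medium, pH 6.0. Same strain lacking NS1 served as positive control.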
2A StopGo: High Throughput Screening for Foot and Mouth Disease Virus Antivirals | human cells with a luciferase reporter of 2A StopGo recoding; control for the full effect not named in the record | Potency, µM (series often up to 57.9 µM), without a hit: at the top dose signal change, negative = less light | 410,000 tested, 1.2% active | AID 1159524, 2015; active = well fitted falling curve with a large enough effect; inconclusive = small, poorly fitted or top-dose-only effect; inactive = no such curve, though single readings can be large or run the other way; tested in HEK293T cells; note: % is set by controls: 0 for no effect and ±100 for the full control effect; nearly all actives have a fitted effect of over 45% in size; luciferase light after 4 h
LASV entry inh: qHTS for Inhibitors of binding or entry into cells for Lassa Virus. Lassa virus pseudotype entry inhibition, cell reporter; control for the full effect not named in the record. Potency, µM (series often up to 37.9 µM), for the others: at the top dose activity change, negative = inhibition, actives largely listed as inhibitors. AID 540256, 2011. 300,000 tested, 1.2% active; active means well fitted inhibition curve with a large enough effect; inconclusive means small, poorly fitted or top-dose-only effect, or effect the other way; inactive means flat fitted curve, though single readings scatter; tested in HEK293 cells; note: % is set by controls: 0 for no effect and ±100 for the full control effect; nearly all actives have a fitted effect of over 50% in size; luciferase read-out
SARS PLP yeast: qHTS of Yeast-based Assay for SARS-CoV PLP. AID 485353, 2010. 330,000 tested, 0.19% active. Potency, µM (series often up to 32.9 µM), without a hit: top-dose activity, positive = growth rescue. S. cerevisiae expressing SARS-CoV PLpro, growth rescue; control for the full effect not named in the record; note: 0% is about no effect; nearly all actives have a fitted effect of over 55% in size; growth read by luminescence after 48 h
RE007 growth inh: qHTS Assay for Inhibitors of the HIV-1 protein Vpr. Potency, µM (highest dose often 92.2 µM), for the others: at the highest dose activity change, negative = less growth. 360,000 tested, 0.21% active. AID 651644, 2012. S. pombe RE007 Vpr strain, BacTiter-Glo ATP luminescence, 24 h; control for the full effect not named in the record; active = well fitted falling curve with a large enough effect; inconclusive = small, poorly fitted or top-dose-only effect; inactive = no such curve, though single readings can be large or run the other way;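 note: % is set by controls: 0 for no effect and ±100 for the full control effect; nearly all actives have a fitted effect of over 50% in size; the assay follows cell death caused by Vpr and the record does not say whether a fall means rescue or toxicity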
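Fission yeast strain RE007, carrying one chromosomally integrated HIV-1 vpr copy, was seeded at OD 0.01 in PMG+AL medium with 23 nL pinned compound. After 24 h at 30 °C and 99% humidity, viability was read by BacTiter-Glo luminescence.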
MARV entry inh: qHTS for inhibitors of binding or entry into cells for Marburg Virus; 300,000 tested, 1.8% active; AID 540276, 2011; Potency, µM (series often up to 37.8 µM), inactives show at the top dose activity change, negative = inhibition, actives largely listed as inhibitors; Marburg virus pseudotyped entry inhibition, cell reporter; control for the full effect not named in the record; about a third of the inactives were read at about 46 µM; active = well fitted inhibition curve with a large enough effect; inconclusive = small, poorly fitted or top-dose-only effect, or effect the other way; inactive = flat fitted curve, though single readings scatter; tested in HEK293 cells; about a fifth of its hits are not listed in these tables; note: % is set by controls: 0 for no effect and ±100 for the full control effect; luciferase read-out
The depositor's hits bear a star; ? = inconclusive; · = not tested or not shown; & = joins results of further samples; [ ] = remark or other dose. Unless noted, calls come from the whole dose curve; as a rule, active means well fitted rising curve with a large enough effect; inconclusive means small, poorly fitted or top-dose-only effect; inactive means no such curve, though single readings can be large or run the other way. Potency is the fitted concentration of half-maximal effect.

SMILES	Cruzain inh noDet	Cruzain Triton	NS1 inh	2A StopGo	LASV entry inh	SARS PLP yeast	RE007 growth inh	MARV entry inh
Cc1ccccc1NC(=O)CSc1nnc(C)c2ccccc12	·	·	-4%	9%	1%	8%	27%	8%[46.1 µM]
CC1=Nc2ccccc2N=C(NC(=O)CSC(=S)N2CCN(C)CC2)C1c1ccccc1 (stereo not given)	·	·	-1%	-17%	-14%	1%	2%	?
CC(=O)N(c1ccccc1)c1ccc([N+](=O)[O-])cc1[N+](=O)[O-]	-12%	-9.3%	1%	-20%	25%	-16%	-8%	12%
COc1cc(C2C3=C(CC(C)(C)CC3=O)N(C)C3=C2C(=O)CC(C)(C)C3)ccc1O	·	·	?	-10%	20%[46.1 µM]	·	-2%	?
COc1ccc(C(=O)N/N=C\c2ccc(OC)c(COc3ccccc3Br)c2)c(OC)c1	·	·	?	-23%	·	-3%	-5%	·
Cc1ccccc1C(=O)N1CCC(n2nccc2NC(=O)CCOc2ccccc2)CC1	·	·	1%	14%	12%	3%	2%	5%
COc1cc(CNCc2ccco2)ccc1OCc1ccccc1	5%	4.4%	-1%	·	-18%	-2%	-6%	?
O=C(/C=C/c1ccccc1)NNC(=O)c1cccs1	·	·	0%	43%[activator]	5%	2%	-5%	?
COc1ccc2c(c1)[nH]c1c(=O)n(/N=C/c3ccc(OC)c(COc4ccccn4)c3)cnc12	2%	-2.7%	-10%	10%	-2%	8%	-2%	-2%
CCOc1ccc(S(=O)(=O)NCc2ccc3c(c2)OCO3)cc1C	·	·	-8%	0%	·	0%	10%	·
O=C(CS(=O)(=O)c1ccccc1)Nc1ccc(Br)cn1	-4%	-0.6%	-17%	34%[activator]	28%	3%	0%	-5%
O=C(CSc1nnnn1-c1cccnc1)Nc1ccccc1F	·	·	-4%	0%	4%	5%	-16%	-2%
O=C(COc1ccc(Br)cc1CNCCc1ccccc1)NCc1ccccc1	·	·	-3%	-3%	·	-1%	-7%	·
CC(=O)N1CCC(C(=O)NCCOc2ccc(C)cc2)CC1	·	·	-10%	34%[activator]	11%	9%	4%	-1%[46.1 µM]
Cc1cc(C)n(C(=O)CCCn2cc([N+](=O)[O-])cn2)n1	·	·	·	3%	6%	-4%	-7%	13%
Cc1cc(C(=O)N/N=C/c2cccc([N+](=O)[O-])c2)c2ccccc2n1	1%	-6.6%	2%	-29%	-8%	13%	-13%	-1%
Cc1c(C=O)c2ccccc2n1CC(=O)NC(C)c1ccccc1 (stereo not given)	·	·	3%	?	-10%[46.1 µM]	1%	16%	?
Cc1ccc(C)n1C(Cc1ccccc1)C(=O)O (stereo not given)	21%	-14%	?	·	·	1%	·	9%
O=[N+]([O-])/C(C(Cl)=C(Cl)Cl)=C(\Sc1ccccc1)N1CCCCC1	·	·	-2%	-28%	·	-1%	-14%	·
CC(Oc1ccc(Br)cc1)C(=O)NCc1ccccn1 (stereo not given)	·	·	2%	2%	-17%[46.1 µM]	0%	33%	3%[46.1 µM]
Cc1ccc(C(=O)N2CCc3ccccc32)cc1	-20%	-2.3%	-12%	·	?	-2%	-10%	5%
Cc1cccc(NC(=O)NC(C)CCc2ccccc2)c1 (stereo not given)	4%	-5.6%	-30%	4%	15%[46.1 µM]	-4%	7%	?
Cc1ccc(Cl)cc1-n1c(=O)c2sc3ccccc3c2n(CC(=O)NC2CCCCC2)c1=O	?	-3.4%	·	-6%	-1%[46.1 µM]	·	·	-29%[46.1 µM]
CNC(=O)c1c(NC(=O)c2ccc(S(=O)(=O)N3CCCCC3C)cc2)sc2c1CCC2 (stereo not given)	-5%	-2.3%	·	-9%	12%[46.1 µM]	·	·	·
CC(=O)NC(Cc1ccccc1)C(=O)N1CCN(C(=O)c2ccco2)CC1 (stereo not given)	12%	2.9%	-4%	14%	5%	7%	13%	-1%
CCC1(c2ccc(Cl)cc2)NC(=O)N(CC(=O)NCc2ccc(F)cc2)C1=O (stereo not given)	·	·	-7%	-14%	?	0%	8%	?
COc1cc2c(cc1OC)C(COc1cc(C)cc(C)c1)N(C(C)=O)CC2 (stereo not given)	·	·	?	-25%	·	5%	5%	·
O=C1N/C(=C/c2cccs2)C(=O)N1Cc1ccccc1F	·	·	5%	6%	0%	-1%	3%	3%[46.1 µM]
CN(C)c1ccc(/C=N/n2cnn(Cc3ccccc3Cl)c2=S)cc1	·	·	·	58%[activator]	-18%[46.1 µM]	2%	7%	9%[46.1 µM]
COc1cc(NC(=S)N2CCCCC2C)cc(OC)c1OC (stereo not given)	·	·	14%	-5%	3%[46.1 µM]	0%	8%	0%[46.1 µM]
COc1ccc(C2CC(=O)C=C(NCc3ccccc3)C2)cc1 (stereo not given)	·	·	-1%	27%	-14%	0%	-4%	?
Cc1ccc(-c2cc(C(=O)NCc3ccccn3)no2)cc1	-5%	-1.6%	-15%	·	7%	-11%	-15%	24%
COc1cc(/C=C(\C#N)C(=O)c2ccc(O)c(O)c2)cc(I)c1O	-4%	-10%	?	-22%	·	·	9%[18.4 µM]	-23%&-23%&-23%&-5%&-23%
O=C(CCN1N=C(c2ccccc2)CCC1=O)NCC1COc2ccccc2O1 (stereo not given)	·	·	-1%	21%	·	1%	1%	·
O=C(Cc1n[nH]c(=O)[nH]c1=O)N/N=C/c1cccc(Cl)c1	·	·	2%	9%	-2%	1%	-11%	1%
CN(C)c1ccc(/C=[N+](\[O-])C2SC(=S)N(C)C2(C)C)cc1 (stereo not given)	-12%	-7.8%	-83%	0%	-11%	-1%	5%	9%
Cc1ccc2c(c1)N(CC(=O)Nc1ccccc1F)C(=O)C(C)O2 (stereo not given)	·	·	·	-12%	-3%[46.1 µM]	·	-14%	-19%[46.1 µM]
Cc1cccc(C(=O)OCC(=O)N2CCCCCC2)c1C	·	·	·	39%[activator]	-6%[46.1 µM]	1%	-16%	?
CCN(CC)S(=O)(=O)c1ccc2oc(SCC3CN=C(c4ccc(OC)cc4)S3)nc2c1 (stereo not given)	-23%	-3.5%	-33%	?	?	-4%	4%	-30%&-30%
CCCCOc1ccc(C(CC(=O)NC)C(=O)O)cc1 (stereo not given)	2%	2.6%	0%	-7%	16%	1%	-7%	?
O=C(Nc1ccc(O)c(-c2nc3ccccc3o2)c1)c1sc2ccccc2c1Cl	14%	1.3%	·	-4%	8%[46.1 µM]	·	·	·
CCOC(=O)C1(Cc2ccccc2C(F)(F)F)CCN(C2CCSC2)CC1 (stereo not given)	·	·	2%	-28%	-14%	-1%	-1%	-6%[46.1 µM]
COc1ccc(OC)c(S(=O)(=O)NCCS(=O)(=O)N2CCN(c3ccccc3)CC2)c1	?	-1.2%	-31%	5%&17%	-2%[46.1 µM]	-1%	7%	·
Clc1ccc(-n2ncc3c(NCc4ccccn4)ncnc32)cc1	?	-4.5%	6%	50%[activator]	?	-1%	-8%	3%
O=C(CCc1c[nH]c2ccccc12)Nc1ccc(S(=O)(=O)Nc2ncccn2)cc1	·	·	·	9%	6%	-2%	50%	?
CC1(C)Cc2ccccc2/C(=C/C(=O)c2ccccc2)N1	·	·	-6%	-18%	·	-16%	-3%	·
Cc1cccc(Nc2ccc([N+](=O)[O-])cc2C(=O)O)c1	-2%	-15%	-25%	25%	8%	-7%	13%	?
CCCSc1nsc(NC(=O)c2cccnc2OCC)n1	·	·	-5%	12%	·	-8%	1%	·
CCOC(=O)C(C)(C)C(=O)C(C)(C)C(O)c1ccccn1 (stereo not given)	3%	1.3%	?	-11%	-1%	14%	-5%	-12%
Fc1ccc(N2CCN(c3ncnc4[nH]ncc34)CC2)cc1	-7%	0.3%	·	-1%	-1%[46.1 µM]	·	·	·
Remaining list, next part.
SMILES	Cruzain inh noDet	Cruzain Triton	NS1 inh	2A StopGo	LASV entry inh	SARS PLP yeast	RE007 growth inh	MARV entry inh
Cc1cnc(C(=O)OCC(=O)N(Cc2ccccc2)C(C)(C)C)cn1	·	·	·	-11%	5%	-1%	0%	·
CC1=C(C(=O)Nc2ccccc2)C(c2ccc(N(C)C)cc2)NC(=O)N1 (stereo not given)	4%	0.0%	4%	-1%	8%	1%	-6%	9%
Cc1cccn2c(CN3CCCC(c4ccccc4)C3)c(C(=O)N3CCOCC3)nc12 (stereo not given)	·	·	-1%	-19%	10%[46.1 µM]	-1%	-1%	-9%[46.1 µM]
Cc1ccc(OCc2nnc(SC3CCc4ccccc4C3=O)n2C)cc1 (stereo not given)	2%	-13%	-6%	?	12%	-33%	?	11%
CCOC(=O)c1sc(NC(=O)Cc2ccccc2OC)nc1C	·	·	0%	29%	·	-5%	9%	·
O=C1OCCC1Sc1ncnc2sccc12 (stereo not given)	-12%	1.1%	9%	-25%	4%	11%	10%	2%
CN(CC(=O)N1CCCCC1)S(=O)(=O)c1cccc2cccnc12	2%	0.1%	10%	-16%	·	3%	-6%	-2%
O=C(Cn1c(-c2cscn2)nc2ccccc21)Nc1ccccc1F	10%	0.0%	6%	-12%	-2%	2%	4%	2%
O=C(COC(=O)C1=COCCO1)NC(=O)c1ccc(OC(F)F)cc1	·	·	·	-5%	-5%	-1%	-10%	-3%[46.1 µM]
CCCc1nn2c(=O)cc(COC(=O)c3ccc(NC(=O)C4CCCCC4)cc3)nc2s1	6%	0.3%	·	-20%	3%[46.1 µM]	·	·	·
O=C(c1ccccn1)N1CCN(c2cccc(C(F)(F)F)c2)CC1	·	·	·	7%	?	-3%	-27%	-15%
O=C(CSc1ccc2nnc(-c3ccccn3)n2n1)N1CCOCC1	1%	-2.0%	-45%	-20%	·	-4%	-1%	·
NC(=O)Cc1nc(-c2ccc(Br)cc2)cs1	1%	-1.1%	11%	11%	0%	3%	18%	10%&10%
